# Assay outcomes deposited in PubChem by The Scripps Research Institute Molecular Screening Center.
# CHRM5 antagonist – blocks acetylcholine activation of human M5 receptor; CHO-hM5 cells, Fluo-8 calcium fluorescence, ACh EC80; P08912; 360,000 tested, 0.59% active; inhibition, % at 3 µM; AID 624040;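 active = inhibition above a per-plate cutoff, the mean of that plate's test compounds plus 3 SD, cut at about 27% in these data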;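 note: 0% = acetylcholine EC80 with DMSO and 100% = DMSO without agonist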
# Target sequence (P08912 whole entry, looked up): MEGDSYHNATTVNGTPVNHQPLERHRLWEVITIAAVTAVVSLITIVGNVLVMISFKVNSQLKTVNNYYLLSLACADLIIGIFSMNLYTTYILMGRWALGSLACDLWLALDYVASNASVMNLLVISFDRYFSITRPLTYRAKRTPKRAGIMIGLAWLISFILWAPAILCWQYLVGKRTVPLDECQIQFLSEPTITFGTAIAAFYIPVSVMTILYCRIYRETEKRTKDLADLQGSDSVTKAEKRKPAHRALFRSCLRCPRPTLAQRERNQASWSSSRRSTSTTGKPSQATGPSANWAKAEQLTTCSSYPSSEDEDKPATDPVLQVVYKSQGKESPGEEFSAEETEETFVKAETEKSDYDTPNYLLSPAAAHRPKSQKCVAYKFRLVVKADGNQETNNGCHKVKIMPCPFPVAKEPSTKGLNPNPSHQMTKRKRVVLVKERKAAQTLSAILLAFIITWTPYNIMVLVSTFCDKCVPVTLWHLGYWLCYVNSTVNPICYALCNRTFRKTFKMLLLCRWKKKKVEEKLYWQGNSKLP
# CHRM5 agonist – CHRM5 agonism in calcium assay. P08912. CHO-K1 hM5 cells, Fluo-8 calcium fluorescence; 0% DMSO wells, 100% maximal acetylcholine response. activation, % at 3 µM. 360,000 tested, 0.19% active. AID 624037;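 active = activation above the run's mean over test compounds plus 3 SD, cut at about 23% in these data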;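 note: signal is peak over basal fluorescence ratio across the kinetic read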
# M5 PAM – positive allosteric modulators of human muscarinic M5 receptor | P08912 | CHO-K1 hM5, Fluo-8 calcium, ACh EC20 PAM; 0% = ACh EC20, 100% = ACh EC100 | activation, % at 3 µM | 360,000 tested, 0.3% active;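 active = activation above the run cutoff, the mean activation of all test compounds plus 3 SD, cut at about 18% in these data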
#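 Test system: CHO-K1 hM5 cells / Doses: single-point, 3 µM nominal / Times: Post-acetylcholine fluorescence recording 140 s / Technique: Fluo-8 calcium fluorescence / Measure: Max/basal fluorescence ratio as % of EC20–EC100 ACh window / Benchmarks: low control EC20 acetylcholine (0%), high control EC100 acetylcholine (100%) / Replicates: one well per compound, no replicates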
# * = called active by the depositor. These rows are one share of the data; the hit share may differ from the screen's.
Compound	CHRM5 agonist	CHRM5 antagonist	M5 PAM
CC[N+](CC)(CC)CCOc1cccc(OCC[N+](CC)(CC)CC)c1OCC[N+](CC)(CC)CC	1	2	-3
COc1ccc2cc([C@@H](C)C(=O)O)ccc2c1	1	-3	-1
COc1ccc2c(c1)c(CC(=O)O)c(C)n2C(=O)c1ccc(Cl)cc1	1	-4	-2
O=C(O)CC(O)C(=O)O (stereo unspecified)	-6	0	0
CC1CCc2cc(F)cc3c(=O)c(C(=O)O)cn1c23 (stereo unspecified)	1	-4	-8
CC(C)(C)C(=O)OCOC(=O)[C@@H]1N2C(=O)[C@@H](N=CN3CCCCCC3)[C@H]2SC1(C)C	1	7	-6
NC12CC3CC(CC(C3)C1)C2	0	7	-12
COc1c2occc2cc2ccc(=O)oc12	1	6	-6
CCCn1c(=O)[nH]c(=O)c2[nH]cnc21	3	-1	1
O=CC(O)C1OC(=O)C(O)C1O (stereo unspecified)	3	-3	7

# Whole records from above. Values in the order: CHRM5 agonist | CHRM5 antagonist | M5 PAM
# Profile of CC(C)(C)C(=O)OCOC(=O)[C@@H]1N2C(=O)[C@@H](N=CN3CCCCCC3)[C@H]2SC1(C)C = 1 | 7 | -6
# Profile of CC[N+](CC)(CC)CCOc1cccc(OCC[N+](CC)(CC)CC)c1OCC[N+](CC)(CC)CC = 1 | 2 | -3
# Profile of NC12CC3CC(CC(C3)C1)C2 = 0 | 7 | -12
# Profile of COc1ccc2c(c1)c(CC(=O)O)c(C)n2C(=O)c1ccc(Cl)cc1 = 1 | -4 | -2

# An excerpt of these results, as labelled records:
COc1ccc2c(c1)c(CC(=O)O)c(C)n2C(=O)c1ccc(Cl)cc1
- CHRM5 agonist = 1
- CHRM5 antagonist = -4
- M5 PAM = -2

O=C(O)CC(O)C(=O)O (stereo unspecified)
- CHRM5 agonist = -6
- CHRM5 antagonist = 0
- M5 PAM = 0
